From PubChem
Rce1 inh – inhibitors of yeast Ras-converting enzyme | AID 2563 | yeast membranes, quenched prenylated peptide cleavage fluorescence | actives 0.27% (n = 290,000) | calls only;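 active = fall in fluorescence gain of 50% or more versus controls, with final raw signal at or below 3038400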;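 also: plate controls were neutral control wells for no effect and wells lacking membranes for full effect; tested at 10 µM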
Target sequence (Q03530 whole entry, looked up): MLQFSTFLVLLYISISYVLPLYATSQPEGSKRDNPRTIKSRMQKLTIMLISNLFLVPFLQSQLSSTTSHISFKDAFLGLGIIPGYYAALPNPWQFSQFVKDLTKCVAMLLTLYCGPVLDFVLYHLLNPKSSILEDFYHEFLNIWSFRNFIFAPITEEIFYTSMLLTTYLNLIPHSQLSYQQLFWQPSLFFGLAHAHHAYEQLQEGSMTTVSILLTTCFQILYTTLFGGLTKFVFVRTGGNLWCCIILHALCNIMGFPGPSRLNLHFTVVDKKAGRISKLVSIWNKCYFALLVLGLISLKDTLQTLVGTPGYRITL
UUG fidelity – modulators of start codon recognition fidelity in yeast | activity score, % at 18.7 µM | actives 0.13% (n = 350,000) | AID 602363 | S. cerevisiae UUG-firefly luciferase reporter, luminescence/redox ratio;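 active = replicate mean at a twofold rise or more, about +100% in these data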;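 also: firefly luciferase made from a UUG start codon reports start codon fidelity; reporter light over untreated wells divided by growth signal over untreated wells; some hits fall short of that in this replicate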
CSC inhib – cancer stem cell inhibition; cancer stem cell-like cells viability, luminescence; inhibition, % at 7.5 µM; actives 1.1% (n = 300,000); AID 2717;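 active = mean at 75% or more and at least half the replicates too; tested in HMLE shEcad cells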;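 also: 0% = median of negative and 100% = median of positive control wells; the first replicate is given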
Env fusion inh – HIV envelope-mediated fusion inhibition; AID 651610; HeLa-JRFL Env/CEM21 cell fusion, luciferase; actives 1.1% (n = 360,000); inhibition, % at 12.3 µM;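 active = mean replicate inhibition score of at least 50 and every replicate individually at or above 50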;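 also: 0% = plate neutral controls and 100% = maraviroc near 300 nM; one replicate is shown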
PABP polyA inh – PABP-poly(A) binding inhibition; AID 2014; inhibition, % at 35 µM; P11940; actives 1% (n = 290,000); PABP-poly(A) RNA binding, fluorescence polarization;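 active = 50% or more with normal probe brightness, or confirmed in later tests; about a fifth of its hits are not listed in these tables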;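 also: calls also rest on retests at 20 µM and on dose response follow-up; controls were probe without protein and protein plus probe with vehicle; some compounds called inactive have numbers as strong as hits; many hits fall short of the cut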
Target sequence (P11940 whole entry, looked up): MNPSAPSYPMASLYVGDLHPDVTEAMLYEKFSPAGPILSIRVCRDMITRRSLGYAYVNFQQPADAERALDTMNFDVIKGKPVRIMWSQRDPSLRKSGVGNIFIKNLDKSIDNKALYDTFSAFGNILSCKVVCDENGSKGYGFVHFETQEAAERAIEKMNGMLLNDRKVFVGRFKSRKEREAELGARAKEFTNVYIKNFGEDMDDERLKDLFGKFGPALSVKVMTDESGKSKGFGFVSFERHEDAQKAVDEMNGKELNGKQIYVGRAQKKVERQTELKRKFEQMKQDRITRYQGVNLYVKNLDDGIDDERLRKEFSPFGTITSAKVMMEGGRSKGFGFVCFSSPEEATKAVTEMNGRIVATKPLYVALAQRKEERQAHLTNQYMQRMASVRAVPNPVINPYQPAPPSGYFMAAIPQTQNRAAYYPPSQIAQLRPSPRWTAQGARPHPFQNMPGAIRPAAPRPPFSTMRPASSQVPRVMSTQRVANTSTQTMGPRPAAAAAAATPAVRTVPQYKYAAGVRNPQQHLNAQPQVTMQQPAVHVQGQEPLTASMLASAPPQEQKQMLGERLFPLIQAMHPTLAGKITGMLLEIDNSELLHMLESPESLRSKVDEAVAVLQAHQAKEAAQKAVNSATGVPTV
eIF4H inh – inhibitors of RNA binding by human eIF4H; actives 0.94% (n = 290,000); inhibition, % at 35 µM; eIF4H fluorescence polarization binding assay; Q15056;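 active = 50% or more with normal probe brightness, or confirmed in later tests; about a fifth of its hits are not listed in these tables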;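 also: calls also rest on retests at 20 µM and on dose response follow-up; 0% = protein and probe with vehicle and 100% = probe without protein; strong numbers were not always called active; many hits fall short of the cut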
MT1-MMP act inh – MT1-MMP (human) activation inhibition; P50281; HT1080 RFP-PRO-GFP cells, GFP/RFP ratio fluorescence, overnight; percent of plate control window, DMSO zero; GFP/RFP ratio change, % at 20 µM; actives 0.061% (n = 360,000);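 active = GFP/RFP ratio change of at least 30% with cell ATP level not reduced by more than half and red fluorescence within 50% of control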; also: strong numbers were not always called active
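Material – HT1080 RFP-PRO-GFP cells · Control set – DMSO wells and RFP-L50D-GFP cells · Incubation – overnight cell settling, then overnight compound exposure, 37 °C, 5% CO2 · Compound dosing – single-point 20 µM compound, 1% DMSO · Read-out – GFP/RFP fluorescence ratio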
MT1-MMP act inh RFP – second read-out of MT1-MMP act inh, no call of its own (marks repeat the call); RFP signal change, %; measured here: RFP expression control read;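 0 = vehicle wells; hits needed this value within 50% of zero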
* = called active by the depositor; i = inactive; nt = not tested or not shown.

SMILES	Rce1 inh	UUG fidelity	CSC inhib	Env fusion inh	PABP polyA inh	eIF4H inh	MT1-MMP act inh	MT1-MMP act inh RFP
CC1CCCC(NC(=O)CSc2ncccn2)C1C (stereo unspecified)	nt	-1	7	11	nt	nt	23	2
Cc1ccc(C(=O)Nc2ccc(N3CCCCC3)cc2)cc1	nt	-16	nt	-67	nt	nt	5	4
Cc1nc2ccc(NS(=O)(=O)c3ccc(F)c(F)c3)cc2s1	nt	2	-6	nt	nt	nt	5	-19
Cc1cc(Nc2ccccc2)nc(-c2ccccc2O)n1	i	-7	80*	nt	2	-3	-5	1
O=C(Cc1ccc(Br)cc1)Nc1ccccc1Cl	i	-12	4	-5	0	-2	-1	-1
Cn1nccc1-c1coc2c(C(=O)N3CCOCC3)cccc12	nt	4	nt	-6	nt	nt	2	6
O=C1C(=O)N(CC(=O)N2CCCC2)c2ccccc21	i	nt	-10	18	-4	4	-1	6
c1ccc(-c2csc3ncnc(N4CCN(Cc5ccc6c(c5)OCO6)CC4)c23)cc1	i	-19	24	30	-7	2	-3	-7
CCOC(=O)c1sc2nc(N3CCCC3)c3c(c2c1N)CC(C)(C)OC3	i	-4	-29	-113	13	0	5	-1
Cc1ccc(/C=C2\C(=O)ON=C2c2ccccc2)o1	i	nt	-9	-6	16	7	1	3
COc1cc(S(=O)(=O)NCCN2CCOCC2)c(OC)cc1Cl	i	3	1	nt	4	3	1	2
O=C(Nc1ccc2c(c1)nc1n2CCN(C2CCCCC2)C1)NC1CCCCC1	i	nt	25	nt	-12	1	nt	nt
CCOC(=O)N1CCN(C(=O)c2ccc(S(=O)(=O)c3ccc(C)cc3)c(NC(C)=O)c2)CC1	i	nt	2	nt	-2	-1	1	0
COc1cccc(NC(=O)CN(C)C(C)C(=O)NC(C)c2ccc(Cl)cc2Cl)c1 (stereo unspecified)	nt	-12	nt	13	nt	nt	2	-1
COc1ccc(-c2nc(CN(CC3CCC(=O)N3)C(C)C)c(C)o2)c(C)c1C (stereo unspecified)	i	-7	-17	3	6	-4	3	-4
COc1cc(/C=C/C(C)=O)cc(OC)c1OC	i	-10	nt	-71	11	1	-1	-2
CCCc1nc2scc(-c3ccccc3)c2c(=O)n1N	i	nt	2	-40	7	-7	-1	-6
COc1ccc(OC)c(C2C/C(=N/O)C(C)C(c3cc(OC)ccc3OC)N2)c1 (stereo unspecified)	nt	-21	nt	0	nt	nt	4	4
O=C(C1CCCCC1)N1CCC2CC1c1cc(-c3ccc4c(c3)OCO4)ccc12 (stereo unspecified)	nt	-10	nt	26	nt	nt	1	-16
CC(C)Sc1nc2c([nH]1)c(=N)ncn2Cc1ccccc1	i	-3	-6	-4	9	4	2	-4
Cc1onc(C(=O)NN)c1-c1csc(COc2ccc(Cl)cc2)n1	i	nt	-3	nt	0	-9	4	-12
CCc1cc2ccc(C)cc2nc1SCC(=O)NNC(=O)c1ccco1	i	nt	-7	0	-18	2	-1	3
CCc1nnc(NC(=O)CSc2ncnc3scc(-c4ccc(C)cc4)c23)s1	i	-19	14	-109	-5	-3	-2	3
Cc1ccccc1NNC(=O)C(=O)NNc1ccccc1C	i	nt	58	-19	2	-3	6	4
c1ccc2sc(NN=C3CCCCCC3)nc2c1	nt	nt	20	-150	5	-18	-4	-9
COc1ccccc1NC(=O)Cn1nc(-c2ccc(Cl)cc2)c2ccccc2c1=O	i	3	10	nt	-18	6	-13	-10
Cc1nc(SCCOc2ccccc2F)[nH]c(=O)c1Cc1ccccc1	i	nt	18	-27	46	3	1	5
O=C(Nc1ccc(S(=O)(=O)Nc2ccnn2-c2ccccc2)cc1)C(F)(F)F	i	-23	-9	30	15	6	-1	2
Cc1cc(C)cc(NC(=S)N2CCC(NC(=O)C3CC3)CC2)c1	i	-23	-7	-9	15	-2	3	3
Cc1cccc(OCC(=O)Nc2ccccc2-c2ccccc2)c1	i	-8	33	5	-11	-1	18	-8
O=C1NN=C(c2ccccc2)CC1c1c[nH]c2ccccc12 (stereo unspecified)	i	nt	-4	19	11	-9	6	2
O=C(COC(=O)CCCSc1nc2ccccc2[nH]1)Nc1cccc(F)c1	i	-14	-3	-4	-6	-12	-4	-2
Cc1cccc(NC(=O)CCN2CCCCC2)c1	i	-4	-12	-27	-9	-3	4	3
COc1ccc(C(=O)c2c3ccc(OC)cc3[n+]([O-])n2CCCC(N)=O)cc1	i	-15	-15	2	nt	nt	3	8
CC1CCCCC1NC(=O)CCC(=O)N1CCOc2ccc(Cl)cc21 (stereo unspecified)	i	-9	-6	0	2	40	-4	-2
CN1C(=O)[C@H]2[C@@H](c3ccc(C(F)(F)F)cc3)N[C@]3(CCCN(Cc4ccco4)C3=O)[C@H]2C1=O	nt	-12	nt	-5	nt	nt	0	0
N#C/C(=C\c1ccc(Sc2ccccc2)o1)c1nc2ccccc2[nH]1	i	-5	8	-33	-1	46	-77	-12
Cc1ccc(N2C(=O)c3cccc4cccc(c34)C2=O)cc1	i	-42	-13	7	-4	-3	0	2
O=C(CN1CCN(S(=O)(=O)c2ccccc2)CC1)Nc1ccccc1C(=O)c1ccccc1	i	4	17	0	2	-3	-25	-21
CCN(c1ccccc1)S(=O)(=O)c1ccc(C(=O)Nc2ccccn2)cc1	i	19	-3	3	nt	nt	0	-5
COc1ccc(C(=O)NCC(=O)NCC(=O)OCC(=O)c2ccc(C)cc2)cc1	i	6	0	nt	-11	-8	-2	3
O=C(CN(Cc1ccc(Cl)cc1)C(=O)CNS(=O)(=O)c1ccccc1)NCC1CCCO1 (stereo unspecified)	i	-12	3	-3	-3	-9	2	0
CN1CCc2c(sc3c2C(=O)NC(c2cn(Cc4ccccc4)c4ccccc24)N3)C1 (stereo unspecified)	i	-8	71	-9	-2	46	-51	-5
CCn1c(CN2C(=O)CSc3ccccc32)n[nH]c1=S	i	nt	10	-6	2	-9	-2	2
COc1ccc(N2CCN(c3ccc(NC(=O)c4ccc5c(c4)OCO5)cc3C#N)CC2)cc1	i	-19	14	nt	6	-4	10	5
COc1ccc(OC)c(CCNC(=O)c2ccccc2NC(=O)C2=C(C)OCCS2)c1	i	-16	-19	12	-5	-16	-6	-4
CCOC(=O)C1CCN(C(=O)c2ccc3c(c2)NC(=O)/C(=C\c2cccc(C)c2)S3)CC1	i	-12	16	-1	-2	-1	-1	-7
CC/C(O)=C1\C(=O)CCCC1=NCCc1nc2ccccc2[nH]1	i	nt	-10	nt	6	-1	1	-2
Cc1cc(C(=O)N2CCCC(Nc3ccccc3)C2)c2ccc(F)cc2n1 (stereo unspecified)	i	-1	-2	9	1	-8	1	3
CCN1CCN(CCCNC(=O)c2ccc(/C=C3/Oc4ccccc4N(Cc4cccc(C)c4)C3=O)cc2)CC1	i	5	-4	nt	-31	-19	-8	-7
Cc1c(NC(=S)NC(=O)c2ccccc2)c(=O)n(-c2ccccc2)n1C	i	-19	-11	-12	nt	nt	0	0
O=C(Cc1ccccc1)NNS(=O)(=O)c1ccc(F)cc1	i	nt	-10	2	-2	-10	nt	nt
CC(NC(=O)COc1ccccc1)C(=O)N1CCN(c2ccc(F)cc2)CC1 (stereo unspecified)	nt	6	-10	nt	nt	nt	5	-2
CCSc1nnc(NC(=O)Cc2ccccc2OC)s1	i	-5	-4	-63	-7	-3	-7	-7
COc1ccc(/C=C/c2c([N+](=O)[O-])c(=O)n(C)c(=O)n2C)cc1	i	nt	3	7	-11	2	-2	-6
Cc1cc[n+](C(C)C(=O)c2ccc(-c3ccccc3)cc2)cc1 (stereo unspecified)	i	nt	4	10	10	19	-5	-30
O=C(NCc1ccc(F)cc1Cl)C1CCN(S(=O)(=O)N2CCCCC2)CC1	i	-2	3	-15	0	-1	0	-3
CCc1cccc(NS(=O)(=O)c2ccc3c(c2)CCC(=O)N3)c1	i	nt	-6	-2	-17	2	2	-2
CCc1nc2ccc(C(=O)NC3CCN(Cc4ccccc4)CC3)cn2c1N(C)Cc1ccc(N(C)C)cc1	nt	-28	nt	22	nt	nt	5	6
CCOc1ccc(NC(=O)CSc2nc(N)c(-c3ccccc3)c(=O)[nH]2)cc1	i	nt	-7	-6	-8	5	-5	-3

Reprinted from the part before: 3 compounds; new compounds follow.
SMILES	Rce1 inh	UUG fidelity	CSC inhib	Env fusion inh	PABP polyA inh	eIF4H inh	MT1-MMP act inh	MT1-MMP act inh RFP
CCc1cccc(NS(=O)(=O)c2ccc3c(c2)CCC(=O)N3)c1	i	nt	-6	-2	-17	2	2	-2
CCc1nc2ccc(C(=O)NC3CCN(Cc4ccccc4)CC3)cn2c1N(C)Cc1ccc(N(C)C)cc1	nt	-28	nt	22	nt	nt	5	6
CCOc1ccc(NC(=O)CSc2nc(N)c(-c3ccccc3)c(=O)[nH]2)cc1	i	nt	-7	-6	-8	5	-5	-3
O=C(NC1CCCCC1)C(c1ccc(F)cc1)N(Cc1ccccc1)C(=O)CN1C(=O)c2ccccc2S1(=O)=O (stereo unspecified)	i	-11	-4	-22	1	-17	-6	0
O=C(CSc1nnc(-c2cccnc2)n1-c1ccccc1)Nc1ccccc1	i	nt	18	nt	4	-2	12	3
COc1ccc(NC(=O)CN(C)C(=O)c2ccc(NS(=O)(=O)c3cccc([N+](=O)[O-])c3)cc2)cc1	i	nt	-13	-9	nt	nt	5	-3
COc1ccc(NC(=O)CN(C)C(=O)c2cccc(S(=O)(=O)N3CCN(c4ccccc4)CC3)c2)cc1	i	nt	-9	2	nt	nt	-8	-21
Cc1ccccc1-c1nnc(SCCC(=O)N2CCOCC2)o1	i	nt	-10	-2	-2	-3	3	3
Cc1onc(-c2ccccc2Cl)c1C(=O)N(C)C1CCCCC1	i	-15	-3	26	3	1	0	-5
Cc1oc2c(C)c(O)ccc2c(=O)c1N1C(=O)c2ccccc2C1=O	i	nt	7	17	-6	-8	2	1
Cn1c2c(c(=O)n(C)c1=O)C(CC(=O)Nc1ccccc1)C(=O)N2 (stereo unspecified)	i	-19	-16	-21	-11	2	-4	5
Cc1onc(-c2ccccc2Cl)c1C(=O)NNC(=O)c1ccc(F)cc1	i	-13	7	10	5	-12	-3	4
Cc1cc(C)n2nc(C(=O)N3CCN(c4ccc([N+](=O)[O-])cc4)CC3)nc2n1	i	-4	-34	10	7	-5	3	4
Cc1cc(=O)oc2cc(OCC(=O)NCCCN3CCCC3=O)ccc12	i	-9	3	10	-4	-4	0	3
CCOC(=O)c1c(NC(=O)C2COc3ccccc3O2)sc2c1CCN(Cc1ccccc1)C2 (stereo unspecified)	i	nt	-24	-118	-4	-8	-5	-10
CC(C)=CCN1CCN(CCCn2cccn2)CC1CCO (stereo unspecified)	i	nt	-4	6	-6	-4	1	0
CC(C)N(CCNC(=O)c1nn(Cc2ccccc2)c(=O)c2ccccc12)C(C)C	i	-9	5	13	-2	-9	-4	-4
COc1ccc(CCC(=O)N/N=C\c2cccs2)cc1	nt	nt	9	16	2	9	0	-1
COc1cc2[nH]c(C(=O)Nc3ccc4c(c3)OCCO4)cc2c(OC)c1OC	i	-35	14	-17	nt	nt	7	-2
COc1ccc(S(=O)(=O)NC(C)C)cc1-n1cnnn1	i	-9	-11	-11	10	-11	0	4
O=C(CCN1CCCCC1)NNC(=O)C12CC3CC(CC(C3)C1)C2	i	-9	-8	1	0	-2	-1	3
CCC(C)NCCOCCOc1ccc(Cl)c(C)c1C (stereo unspecified)	i	nt	5	20	-1	5	-2	1
COc1cccc(C2N(c3ccc(Cl)cc3)C(=O)C3CCCN32)c1 (stereo unspecified)	i	-10	nt	7	4	-7	10	5
COC(=O)C1=C(N)OC2=C(C(=O)CCC2)C1c1cccs1 (stereo unspecified)	i	-7	5	-42	1	-8	-4	4
CN(Cc1ccccc1)C(=O)CCC1CCN(C(=O)CC2=CCCCC2)CC1	i	12	nt	-6	-1	-3	-1	0
